nsP2pro inh = inhibitors of chikungunya virus nsP2 protease; Q8JUX6; 31,000 tested, 1.1% active; Potency, µM (doses to about 24.9 µM), for inactives: top-dose activity change, negative = inhibition, actives largely listed as inhibitors; FRET peptide cleavage, nsP2pro, fluorescence 1 h; active means well fitted inhibition curve with a large enough effect; inconclusive means small, poorly fitted or top-dose-only effect; inactive means no such curve, though single readings can be large or run the other way; note: nearly all actives have a fitted effect of over 60% in size; a reference inhibitor and vehicle were the controls
* hit, by the source's call; i = inactive; ? = inconclusive; & = joins results of further samples; [ ] = remark or other dose. % is set by controls: 0 for no effect and ±100 for the full control effect; potency is the fitted concentration of half-maximal effect.

structure | nsP2pro inh
COc1cccc(OC(=O)CSc2nnc(-c3ccc4c(c3)OCO4)o2)c1 | -18%
Cc1ccc(S(=O)(=O)N(C)Cc2nc(-c3ccccc3)oc2C)cc1 | -9%
COC[C@H]1CCCN1Cc1nc(C2(O)CCN(C(=O)CC(C)(C)C)CC2)cs1 | i
O=C1NC2(Cc3ccccc31)CN([S+](=O)([O-])c1cccs1)C2 | -13%
O=S(=O)(NCc1ccc(F)cc1)c1ccc(-c2cnc(C3CC3)o2)cc1 | -15%
OC1(c2csc(CN3CCOCC3)n2)CCN(Cc2ccc(F)cc2)CC1 | i
O=S(=O)(Nc1ccccc1F)c1ccc(O)c2ncccc12 | i
C=CC1(C)CC(OC(=O)/C(C)=C\COC(C)=O)C(C(=C)C(=O)O)C(O)C1C(=C)CO (stereo unspecified) | ?
O=C(c1ccccc1OC1CN(Cc2cccc(C(F)(F)F)c2)C1)N1CCOCC1 | i
O=C(CSc1ccc(-c2cccs2)nn1)Nc1ccccc1C(F)(F)F | -8%
CCOc1ccc(CCNC(=O)CCN2N=C(c3ccc(OC)cc3)CCC2=O)cc1OCC | -10%
O=C(CSc1ccc2nnc(CCNS(=O)(=O)c3ccccc3)n2n1)Nc1ccccc1C(F)(F)F | -11%
CS(=O)(=O)N1CCOc2ccc(CCC(=O)NCC3CCCO3)cc2C1 (stereo unspecified) | -10%
CN(C)C=Nc1c(I)cc(I)c(CCC(=O)O)c1I | ?
C=C1/C(=C/C=C2\CCC[C@]3(C)[C@@H]([C@H](C)/C=C/[C@@H](C)C(C)C)CC[C@@H]23)C[C@@H](O)C[C@@H]1O | -19%
CC(C)[C@H](C(=O)Nc1ccc(C(=O)NO)cc1)c1ccccc1 | -20%&0%
O=C(c1nccc2ccccc12)N1CCC2(CC1)CC(O)CCO2 (stereo unspecified) | -14%
O=C(Cn1ncc2c3ccccc3n(Cc3cccc(Cl)c3)c2c1=O)NCc1cccs1 | -16%
COc1ccccc1CNC(=O)c1nnn(CC(=O)Nc2c(C)cccc2C)c1N | -19%
COC(=O)[C@H](CC1C=NC=N1)NCC12CC3CC(CC(C3)C1)C2 (stereo partly specified) | -5%
CN(CCc1ccccn1)[C@H]1[C@@H]2OC[C@@H](O2)[C@@H](NC(=O)Nc2cccc(C(F)(F)F)c2)[C@@H]1O | 1%
COc1cccc(C2c3c(ncn(-c4cccc(C)c4)c3=N)Oc3ccc4ccccc4c32)c1 (stereo unspecified) | -1%
COc1cc(-c2nc(Nc3ccc(F)c(F)c3)c3ccccc3n2)cc(OC)n1 | 3%
CCOc1ccccc1-n1nnc(S(=O)(=O)c2ccc(C)cc2)c1N | -3%
COc1cccc(-c2ccc(CNc3ccc(N4CCN(C(=O)OC(C)(C)C)CC4)cc3)o2)c1 | 1%
Cc1cc(CS(=O)(=O)c2ccccc2)cc(OCc2ccc(CN3CCCC3CO)cc2)c1 (stereo unspecified) | 30%
COc1ccc(NC(=O)c2c(NC(=O)c3ccc(Br)cc3)sc3c2CCCC3)cc1 | -35%
COc1cc2c(cc1CN1CCC3(CCCNC3)C1)OCCCO2 (stereo unspecified) | 0%
Clc1ccc(N2C[C@H]3CC[C@@H](C2)N3)nn1 | 5µM*
OC[C@H]1O[C@@H](OCCc2ccc(O)cc2)[C@H](O)[C@@H](O)[C@@H]1O | 37%&-8%[activator]
CC(=O)Nc1sc2c(c1-c1cccc3[nH]ncc13)CCNC2 | i
Cc1ccc(Cl)cc1NC(=O)CN1C(=O)c2ccccc2Sc2ncccc21 | -12%
CCc1n[nH]c(CC2CCN(C(=O)C3CC3)CC2)n1 | 4%
COc1ccc(CCNc2oc(/C=C/c3ccc(OC)c(OC)c3)nc2C#N)cc1 | -22%
COc1ccc(NC(=O)Nc2nnc(N3CCCC3)s2)cc1 | -18%
Cc1cc(-c2nnc3n2CCCCC3)c(C)n1-c1cccc(Cl)c1 | -14%
Cc1c(Cl)cccc1NS(=O)(=O)c1cc2c(cc1F)NC(=O)CC2 | -3%
Cc1ccc(OCCn2c(CCNC(=O)COc3ccccc3Br)nc3ccccc32)cc1 | -8%
CCCCCCOc1ccc(C(=N)N(CCCC)CCCC)c2ccccc12 | 63%[activator]
CCOc1ccc(/C=C/C(=O)Nc2ccc3nc(N(CC)CC)cc(C)c3c2)cc1OC | 11%
COCc1nc2nc(-c3ccccc3)c(-c3ccc(O)c(F)c3)cc2n1C | 3%[39.2 µM]
CC1(C)CC[C@]2(C(=O)O)[C@H](O)C[C@]3(C)C(=CCC4[C@@]5(C)CC[C@H](O[C@@H]6O[C@H](CO[C@@H]7OC[C@H](O)[C@H](O)[C@H]7O[C@@H]7OC[C@@H](O)[C@H](O)[C@H]7O)[C@@H](O)[C@H](O)[C@H]6O[C@@H]6O[C@H](CO)[C@@H](O)[C@H](O)[C@H]6O)C(C)(C)C5CC[C@]43C)[C@@H]2C1 (stereo partly specified) | -8%[5.1 µM]
CN(C(=O)c1cccc2ccccc12)C1CCCN(C2Cc3ccccc3C2)C1 (stereo unspecified) | -13%
Cc1cnn(-c2cc(N3CCC(n4cc(C5CCCC5)nn4)CC3)ncn2)c1 | i
COc1ccc(CNC(=O)C[C@@H]2CCNC[C@@H]2Cc2cc(C(C)(C)C)on2)cc1 | -19%[39.2 µM]
NC12CC3CC(CC(C3)C1)C2 | ?
CC(=C(CCOC(=O)C(C)C)SSC(CCOC(=O)C(C)C)=C(C)N(C=O)Cc1cnc(C)nc1N)N(C=O)Cc1cnc(C)nc1N | 11µM*
CC(Oc1ccccc1)C(=O)Nc1ccccc1C(=O)OCc1cc(=O)n2nc(C3CC3)sc2n1 (stereo unspecified) | -18%
COC(=O)C1=CC[C@H](c2ccc(C)cc2)N(S(=O)(=O)c2ccc(C)cc2)[C@@H]1c1ccc(C(C)(C)C)cc1 | i
Cc1ccc(C)c(N2CCN(C(c3ccc(F)cc3)c3nnc(-c4ccccc4)o3)CC2)c1 (stereo unspecified) | ?
COc1ccc2c(c1)sc1ncc(C(=O)NCc3ccccc3F)c(=O)n12 | -7%
OC[C@H]1O[C@@H](O[C@@H]2[C@@H](CO)O[C@](O)(CO)[C@H]2O)[C@H](O)[C@@H](O)[C@H]1O | -4%
CN1CCN(CCCNC(=O)Cn2c(-c3cccs3)cc3ccccc32)CC1 | -15%
Cc1ccc(C)c(CN2C(=O)C3(c4ccccc42)N(c2cccc(C(F)(F)F)c2)C(=O)CS3(=O)=O)c1 (stereo unspecified) | 0%
C[S+](=O)([O-])NC1CCCN(Cc2ccc(-c3cncnc3)cc2)C1 (stereo unspecified) | -7%
CNC(=O)c1c(I)c(NC(C)=O)c(I)c(C(=O)O)c1I | -2%
Cc1ccc2cc3c(N)nn(C(=O)c4cccc(F)c4)c3nc2c1 | -14%
NC[C@H]1CCC[C@@H](CNC(=O)[C@@H](Cc2c[nH]c3ccccc23)NC(=O)N2CCC3(C=Cc4ccccc43)CC2)C1 | 49%[activator]
CCC(=O)N1CCCCCCNC(=O)[C@@H]2C[C@@H](C(=O)N3CCN(c4ccccn4)CC3)C[C@@H]21 | 0%
CC(=O)N1CCc2c(sc3c2c(=O)n(-c2ccc(C)cc2)c(=O)n3Cc2c(F)cccc2Cl)C1 | -15%

Later entries
structure | nsP2pro inh
CCC(C)/C=C(C)/C=C/c1cc2c(cn1)C(=O)C(C)(OC(C)=O)C(O)=C2Cl (stereo unspecified) | ?
CNS(=O)(=O)c1cn(CC(=O)N2CCN(c3ccccc3OC)CC2)cc1S(=O)(=O)NC | -16%
C[C@H](O)C(=O)Nc1c(I)c(C(=O)NC(CO)CO)c(I)c(C(=O)NC(CO)CO)c1I | 2%
CCc1nn(CCCC(=O)N2CCN(c3cccc(OC)c3)CC2)c(=O)c2cc3occc3n12 | -15%
CC1=C(C(=O)N(C)C)C(c2ccccc2Br)N=C(Nc2nc3ccccc3o2)N1 (stereo unspecified) | i
CCCCCCCCCCCCCCCC(=O)OC1CCCn2c1nc(C)c(CCN1CCC(c3noc4cc(F)ccc34)CC1)c2=O (stereo unspecified) | -8%
COc1cc(CC(COC2OC(CO)C(O)C(O)C2O)c2cc(/C=C/CO)cc(OC)c2O)ccc1O (stereo unspecified) | 16%[10 µM]
COc1cc(C(=O)Nc2ccc3[nH]c(=O)sc3c2)cc(OC)c1OC | -13%
Cc1cccc(N2CCN(C(=O)c3cc4c(=O)n(C)c5ccccc5c4s3)CC2)c1C | -25%
COc1cccc(CC(=O)N[C@@H]2C[C@H](Cn3cc(-c4cccnc4)nn3)[C@@H](O)[C@H]2O)c1 | i
CC(C)(C)C1CCC(C(=O)Nc2ccc(S(=O)(=O)Nc3nccs3)cc2)CC1 (stereo unspecified) | 5%
CN1CCC[C@@H]1Cc1c[nH]c2ccc(CCS(=O)(=O)c3ccccc3)cc12 | -10%&-5%&8%
CN(C(=O)CSc1nnc(-c2ccccc2F)o1)C1CCCCC1 | -25%
CC1CCCCN1C(=O)CN1CCSc2ccccc21 (stereo unspecified) | -19%
COc1ncnc(NS(=O)(=O)c2ccc(N)cc2)c1OC | 0%
O=C(Nc1ccc(-c2nc3ccccc3[nH]2)cc1)c1ccc2ncccc2c1 | 0%
FC(F)(F)c1ccccc1-c1nc(NCc2ccccc2)c2ccccc2n1 | i
Cc1sc2c(c1C)c(=O)n(CCc1ccccc1)c(=O)n2Cc1ccccc1Cl | -7%
O=C(c1ccc2c(c1)ncn2-c1ccc(Cl)cc1)N1CCCCC1 | -6%
S=C(NCCCNc1ccc(Br)cn1)NCCCc1cnc[nH]1 | 2%
COc1ccccc1C(=O)N1CCc2cc(-c3nc(NC(=O)Cc4ccc5c(c4)OCO5)sc3C)ccc21 | ?
CC(C)Oc1ccc(C2(C(=O)N3C[C@@H](C)[C@](O)(C4CC4)C3)CCCC2)cc1 | i
CCCCN(C)C(=O)Cn1nc(-c2ccccc2C)ccc1=O | -4%
CCOc1ccccc1C1C(C(N)=O)=C(C)Nc2nc(-c3ccccc3Cl)nn21 (stereo unspecified) | -12%
FC(F)(F)c1ccc(-c2ccc(CNc3nc(-c4ccccc4C(F)(F)F)nc4ccccc34)cc2)cn1 | -8%
CC(C)C[C@H](NC(=O)[C@@H](O)[C@H](N)Cc1ccccc1)C(=O)O | 12%&-4%
CNC(=O)[C@@H]1CN(C(=O)CCc2ccc(OC)c(OC)c2)C[C@H]1CO | -7%
COc1ccccc1CCNC(=O)C(=O)NCC(c1cccnc1)N1CCN(c2ccccc2)CC1 (stereo unspecified) | -2%
CCC(=O)Nc1ccc2nc(SCCOc3ccc(C)cc3OC)sc2c1 | -21%
CO[C@H]1C[C@@H]2CC[C@@H](C)[C@@](O)(O2)C(=O)C(=O)N2CCCC[C@H]2C(=O)O[C@H]([C@H](C)C[C@@H]2CC[C@@H](OC(=O)C(C)(CO)CO)[C@H](OC)C2)CC(=O)[C@H](C)/C=C(\C)[C@@H](O)[C@@H](OC)C(=O)[C@H](C)C[C@H](C)/C=C/C=C/C=C/1C | 2%[10 µM]
CN1CCN(Cc2ccc(-c3cnc4c(OCc5ccccc5)nccn34)cc2)CC1 | i
COc1ccc(CCN2CCCC(CN(C)Cc3cnc[nH]3)C2)cc1 (stereo unspecified) | i
Cn1nnnc1SCC1=C(C(=O)O)N2C(=O)[C@@H](NC(=O)[C@H](OC=O)c3ccccc3)[C@H]2SC1 | ?
Cc1nc(Nc2nc3ccccc3o2)nc2c1CCCC2 | -1%
CC(=O)c1ccc(NC(=O)c2cn(-c3ccccc3)nc2-c2ccc(Br)cc2)cc1 | -22%
O=C1c2ccccc2C(=O)c2oc(-c3ccccc3)nc21 | 8.8µM*
CC(C)(C)NC(=O)[C@H]1CC[C@H]2[C@@H]3CC[C@H]4NC(=O)C=C[C@]4(C)[C@H]3CC[C@]12C | -15%&10%
Cc1cc(C)c2sc(N3CCN(C(=O)C4CC4)CC3)nc2c1 | -32%
O=C(c1cc(-n2cccn2)ccc1Cl)N1CCn2nc(CO)cc2C1 | 1%
COc1ccc2ncc3c(-c4ccccc4)nn(-c4ccc(C)c(C)c4)c3c2c1 | -7%

Nothing new here: entries from further up.
structure | nsP2pro inh
COc1ccccc1C(=O)N1CCc2cc(-c3nc(NC(=O)Cc4ccc5c(c4)OCO5)sc3C)ccc21 | ?
CC(C)Oc1ccc(C2(C(=O)N3C[C@@H](C)[C@](O)(C4CC4)C3)CCCC2)cc1 | i
CCCCN(C)C(=O)Cn1nc(-c2ccccc2C)ccc1=O | -4%
CCOc1ccccc1C1C(C(N)=O)=C(C)Nc2nc(-c3ccccc3Cl)nn21 (stereo unspecified) | -12%
FC(F)(F)c1ccc(-c2ccc(CNc3nc(-c4ccccc4C(F)(F)F)nc4ccccc34)cc2)cn1 | -8%
CC(C)C[C@H](NC(=O)[C@@H](O)[C@H](N)Cc1ccccc1)C(=O)O | 12%&-4%
CNC(=O)[C@@H]1CN(C(=O)CCc2ccc(OC)c(OC)c2)C[C@H]1CO | -7%

Remaining list, next part.
structure | nsP2pro inh
CCOC(=O)COc1ccc2c(=O)cc(-c3ccccc3)oc2c1 | 29%
CCc1ccc2oc(-c3ccc(C)c(NC(=O)c4cc([N+](=O)[O-])ccc4N4CCOCC4)c3)nc2c1 | -14%
O=C(Nc1ccc(S(=O)(=O)Nc2ncc(-c3ccccc3)s2)cc1)c1ccc2ccccc2c1 | i
O=C(NCCc1nc2ccccc2s1)[C@H]1CNC[C@@H](C(=O)N2CCOCC2)C1 | -5%
Cc1ncc([N+](=O)[O-])n1C[C@H](O)CN1CCOCC1 | 12%
O=C(NCCCN1CCN(c2ccccc2F)CC1)c1cc2c(Cl)nc3ccccc3c2s1 | -16%
COCCNCc1ccc(-c2cc3nccc(Oc4ccc(NC(=S)NC(=O)Cc5ccc(F)cc5)cc4F)c3s2)nc1 | 88%[activator]
O=C(CN1C(=O)CC(c2ccco2)Sc2ccccc21)Nc1ccccc1F (stereo unspecified) | -26%

Only part of the results is shown; count on the stated rates, not on these rows.
